SARS PLP yeast = qHTS of Yeast-based Assay for SARS-CoV PLP. Potency, µM (titrated, usually from 32.9 µM), for inactives: top-dose activity, positive = growth rescue. AID 485353, 2010. S. cerevisiae expressing SARS-CoV PLpro, growth rescue; control for the full effect not named in the record. 330,000 compounds, 0.19% hits; active means well fitted rising curve with a large enough effect; inconclusive means small, poorly fitted or top-dose-only effect; inactive means no such curve, though single readings can be large or run the other way; further: 0% is about no effect; nearly all actives have a fitted effect of over 55% in size; growth read by luminescence after 48 h
MARV entry inh = qHTS for inhibitors of binding or entry into cells for Marburg Virus. Marburg virus pseudotyped entry inhibition, cell reporter; control for the full effect not named in the record; about a third of the inactives were read at about 46 µM. Potency, µM (highest dose often 37.8 µM), without a hit: top-dose activity change, negative = inhibition, most hits filed as inhibitors. 300,000 compounds, 1.8% hits. AID 540276, 2011; active = well fitted inhibition curve with a large enough effect; inconclusive = small, poorly fitted or top-dose-only effect, or effect the other way; inactive = flat fitted curve, though single readings scatter; tested in HEK293 cells; about a fifth of its hits are not listed in these tables; further: on the % scale 0 is the no-effect control and ±100 the full control effect; luciferase read-out
Cruzain noTriton = qHTS Assay for Promiscuous and Specific Inhibitors of Cruzain (without detergent); Potency, µM, for the others: max response, negative = inhibition, actives largely listed as inhibitors; purified cruzain, Z-FR-AMC fluorescence, no detergent; 200,000 compounds, 2.3% hits; AID 1476, 2009; Cruzipain (Trypanosoma cruzi), P25779;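 further: plate controls were enzyme without inhibitor for no effect and buffer without enzyme for full effect; nearly all actives have a fitted effect of over 40% in size; top concentration of the series not given in the record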
Target sequence (P25779 123-467 limits assumed): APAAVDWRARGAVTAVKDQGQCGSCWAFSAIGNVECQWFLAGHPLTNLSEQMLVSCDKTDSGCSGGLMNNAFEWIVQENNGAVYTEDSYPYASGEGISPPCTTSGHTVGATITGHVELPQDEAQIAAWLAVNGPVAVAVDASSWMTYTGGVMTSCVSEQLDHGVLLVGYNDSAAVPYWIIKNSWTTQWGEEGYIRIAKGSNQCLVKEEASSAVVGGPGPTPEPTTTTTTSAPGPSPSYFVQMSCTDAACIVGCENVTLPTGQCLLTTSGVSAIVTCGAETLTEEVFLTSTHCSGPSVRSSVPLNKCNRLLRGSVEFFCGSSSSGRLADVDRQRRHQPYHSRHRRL
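Detergent-free condition (0.00005% Triton X-100) in acetate buffer pH 5.5 with DTT. 1.5 nM enzyme and compound were pre-mixed 15 min, then 2 uM Z-FR-AMC substrate added; reaction progress from fluorescence change between first and third reads (60 s).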
NS1 inh = qHTS Assay for Inhibitors of Influenza NS1 Protein Function | AID 2326, 2010 | 270,000 compounds, 0.4% hits | S. cerevisiae slowed by influenza A NS1, growth recovery by OD600 | Potency, µM (doses to about 46.1 µM), inactives show top-dose activity, positive = more growth; active means well fitted rising curve with a large enough effect; inconclusive means small, poorly fitted or top-dose-only effect; inactive means no such curve, though single readings can be large or run the other way; further: nearly all actives have a fitted effect of over 50% in size
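Recovery from NS1-induced slow growth read by OD600 in budding yeast switched to galactose assay medium (pH 6.0, -URA) at 1:100 dilution. Compound 23 nl per well; the matching strain lacking NS1 serves as control.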
Cruzain inh Det = qHTS Assay for Promiscuous and Specific Inhibitors of Cruzain (with detergent); Cruzipain (Trypanosoma cruzi), P25779; purified cruzain, Z-FR-AMC fluorescence, 0.01% Triton; Potency, µM, for the others: max response, negative = inhibition, hits mostly inhibitors; 200,000 compounds, 0.43% hits; AID 1478, 2009;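 further: plate controls were neutral wells for no effect and buffer without enzyme for full effect; nearly all actives have a fitted effect of over 40% in size; top concentration of the series not given in the record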
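Detergent-containing run (0.01% Triton X-100) in acetate buffer pH 5.5 with 5 mM DTT: enzyme at 1.5 nM final, 15 min compound preincubation at room temperature, then 2 uM Z-FR-AMC substrate. Activity taken as 60 s fluorescence increase at 360/450 nm.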
2A StopGo = High Throughput Screening for Foot and Mouth Disease Virus Antivirals; human cells with a luciferase reporter of 2A StopGo recoding; control for the full effect not named in the record; Potency, µM (series often up to 57.9 µM), for inactives: at the top dose signal change, negative = less light; 410,000 compounds, 1.2% hits; active = well fitted falling curve with a large enough effect; inconclusive = small, poorly fitted or top-dose-only effect; inactive = no such curve, though single readings can be large or run the other way; tested in HEK293T cells; further: on the % scale 0 is the no-effect control and ±100 the full control effect; nearly all actives have a fitted effect of over 45% in size; luciferase light after 4 h
Lassa entry inh = qHTS for Inhibitors of binding or entry into cells for Lassa Virus. Lassa virus pseudotype entry inhibition, cell reporter; control for the full effect not named in the record. Potency, µM (titrated, usually from 37.9 µM), for inactives: at the top dose activity change, negative = inhibition, actives largely listed as inhibitors. 300,000 compounds, 1.2% hits. AID 540256, 2011; active means well fitted inhibition curve with a large enough effect; inconclusive means small, poorly fitted or top-dose-only effect, or effect the other way; inactive means flat fitted curve, though single readings scatter; tested in HEK293 cells; further: on the % scale 0 is the no-effect control and ±100 the full control effect; nearly all actives have a fitted effect of over 50% in size; luciferase read-out
RE007 growth inh = qHTS Assay for Inhibitors of the HIV-1 protein Vpr; 360,000 compounds, 0.21% hits; S. pombe RE007 Vpr strain, BacTiter-Glo ATP luminescence, 24 h; control for the full effect not named in the record; Potency, µM (series often up to 92.2 µM), for the others: at the top dose activity change, negative = less growth; active = well fitted falling curve with a large enough effect; inconclusive = small, poorly fitted or top-dose-only effect; inactive = no such curve, though single readings can be large or run the other way;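 further: on the % scale 0 is the no-effect control and ±100 the full control effect; nearly all actives have a fitted effect of over 50% in size; the assay follows cell death caused by Vpr and the record does not say whether a fall means rescue or toxicity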
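Fission yeast strain RE007, carrying one chromosomally integrated HIV-1 vpr copy, was seeded at OD 0.01 in PMG+AL medium with 23 nL pinned compound. After 24 h at 30 °C and 99% humidity, viability was read by BacTiter-Glo luminescence.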
Active calls of the source: *; ? = inconclusive; . = not tested or not shown; & = joins results of further samples; [ ] = another dose, or the depositor's remark. Unless noted, the call rests on the fitted dose curve; in most records, active means well fitted curve in the direction sought with a large enough effect; inconclusive means small, poorly fitted or top-dose-only effect, or another doubt; inactive means no such curve, though single readings can be large; an effect the other way counts as inactive or inconclusive. Potency means the concentration at half of the fitted maximal effect.

Screens in order – SARS PLP yeast	MARV entry inh	Cruzain noTriton	NS1 inh	Cruzain inh Det	2A StopGo	Lassa entry inh	RE007 growth inh
O=C(Nc1ccc(Cl)cc1)c1cc2nc(-c3ccco3)cc(C(F)(F)F)n2n1
 : -4%	9%	?	1%	-9.7%	9%	-16%	-12%
NC(=O)CSc1nc2scc(-c3ccc(Cl)cc3)c2c(=O)n1Cc1ccccc1
 : 4%	-17%[46.1 µM]	?	12%	-2.9%	1%	-14%[46.1 µM]	-17%
Cc1ccc(CNC(=O)Cn2ncn3cccc3c2=O)cc1
 : 1%	.	.	2%	.	26%	.	13%
CCCCC(CCC(=O)O)(C(=O)OCC)c1csc(Nc2ccc(C)cc2)n1 (stereo not given)
 : -1%	-1%[46.1 µM]	.	3%	.	1%	12%	-8%
CCn1c(SCC(=O)Nc2ccccc2Cl)nnc1C1CC1
 : 2%	?	.	10%	.	-4%	16%	11%
Clc1cccc(-n2ncc3c(NC4CCCCC4)ncnc32)c1
 : .	.	-5%	.	-0.3%	-1%	?	.
CCCc1nnc(NC(=O)C2CC(=O)N(CCc3ccc(F)cc3)C2)s1 (stereo not given)
 : -2%	8%[46.1 µM]	.	6%	.	6%	7%[46.1 µM]	-5%
O=C(Nc1nc2ccccc2s1)c1c(F)cccc1Cl
 : 1%	11%	.	-1%	.	63%[activator]	?	-23%
CCCCn1nc(C(=O)O)ccc1=O
 : -5%	12%	4%	-5%	5.6%	-5%	1%	1%
CCc1nnc2sc(-c3ccc(NC(=O)c4ccc5c(c4)OCCO5)cc3)nn12
 : -2%	?	29%	-1%	-7.1%	?	-13%	-10%
O=C(Nc1nccs1)C1CC=CCC1 (stereo not given)
 : 3%	7%[46.1 µM]	.	15%	.	12%	3%	-20%
Cn1cnnc1SCc1ccc(C(=O)N/N=C(\CCC(=O)O)c2ccc(C(C)(C)C)cc2)cc1
 : -5%	9%	10%	-6%	-2.4%	4%	7%	22%
C=CCN1C(=O)C2(OCCCO2)c2cc(C)ccc21
 : 0%	?	.	11%	.	-13%	20%	6%
O=C(Nc1cccc(Cl)c1)NC1CCS(=O)(=O)C1 (stereo not given)
 : 1%	5%[46.1 µM]	.	8%	.	-3%	.	-4%
Cc1ccc(SCc2cn3ccccc3n2)cc1
 : 3%	?	.	-1%	.	0%	?	?

7 compounds from above, reduced to Cruzain inh Det, MARV entry inh and 2A StopGo:
| SMILES | Cruzain inh Det | MARV entry inh | 2A StopGo |
| --- | --- | --- | --- |
| O=C(Nc1ccc(Cl)cc1)c1cc2nc(-c3ccco3)cc(C(F)(F)F)n2n1 | -9.7% | 9% | 9% |
| C=CCN1C(=O)C2(OCCCO2)c2cc(C)ccc21 | . | ? | -13% |
| CCc1nnc2sc(-c3ccc(NC(=O)c4ccc5c(c4)OCCO5)cc3)nn12 | -7.1% | ? | ? |
| Cc1ccc(SCc2cn3ccccc3n2)cc1 | . | ? | 0% |
| O=C(Nc1cccc(Cl)c1)NC1CCS(=O)(=O)C1 (stereo not given) | . | 5%[46.1 µM] | -3% |
| Clc1cccc(-n2ncc3c(NC4CCCCC4)ncnc32)c1 | -0.3% | . | -1% |
| O=C(Nc1nccs1)C1CC=CCC1 (stereo not given) | . | 7%[46.1 µM] | 12% |

2 entries drawn at random from those above, as already listed:
Screens in order – SARS PLP yeast	MARV entry inh	Cruzain noTriton	NS1 inh	Cruzain inh Det	2A StopGo	Lassa entry inh	RE007 growth inh
O=C(Nc1cccc(Cl)c1)NC1CCS(=O)(=O)C1 (stereo not given)
 : 1%	5%[46.1 µM]	.	8%	.	-3%	.	-4%
O=C(Nc1nc2ccccc2s1)c1c(F)cccc1Cl
 : 1%	11%	.	-1%	.	63%[activator]	?	-23%

Additional structures.
Screens in order – SARS PLP yeast	MARV entry inh	Cruzain noTriton	NS1 inh	Cruzain inh Det	2A StopGo	Lassa entry inh	RE007 growth inh
COc1ccc(-c2cn(-c3ccc(C)cc3)c(S(=O)(=O)CC(=O)Nc3ccccc3)n2)cc1
 : .	3%[46.1 µM]	20µM*	.	-14%	73%[activator]	?	.
COc1ccc(CCNC(=O)COc2ccc(C)nc2[N+](=O)[O-])cc1OC
 : -1%	3%[46.1 µM]	.	.	.	-1%	8%[46.1 µM]	-24%
CC(C)COP(=O)(c1ccc(N(C)C)cc1)C(O)c1ccc(Br)cc1 (stereo not given)
 : 1%	.	.	5%	.	21%	.	7%
CCOC(=O)c1c(CSc2ccccc2)n(C)c2ccc(O)c(CN3CCN(C)CC3)c12
 : 1%	.	.	?	.	?	.	-10%
Cc1ccccc1Nc1nc(N)nc(CSc2nc3ccccc3s2)n1
 : -3%	-2%	?	-3%	-2.8%	-17%	?	-14%
CCCCc1ccc(NS(=O)(=O)c2c(C)n(C)c(=O)n(C)c2=O)cc1
 : -11%	.	.	-13%	.	-16%	.	1%
O=C(O)CN1CCCC1=Nc1ccccc1
 : -4%	12%	15%	9%	7.7%	6%	5%	-2%
CN(C)C(=O)Cn1cc(S(=O)(=O)Cc2ccccc2)c2ccccc21
 : -3%	5%[46.1 µM]	.	-6%	.	-8%	17%[46.1 µM]	9%
COc1ccccc1C(=O)NC(=O)Nc1ccc(-c2cc(C(F)(F)F)nn2-c2ccccc2)cc1
 : .	-3%[46.1 µM]	-13%	.	0.1%	?	-6%[46.1 µM]	.
Cc1noc(C)c1NC(=O)NCCN1CCN(Cc2ccccc2)CC1
 : 0%	19%	.	-5%	.	8%	-2%	4%
CC1=Nc2cc(C(=O)NC3CCCC3)ccc2Sc2ccc(C)cc21
 : .	?	-24%	.	-3.8%	-2%	-33%[46.1 µM]	.
O=C(N/N=C/c1ccco1)c1ccc(N2CCCC2=O)cc1
 : -26%	?	2%	2%	-8.1%	29%	10%	.
CC(C)(C)NS(=O)(=O)c1ccc(CCC(=O)NCc2cccnc2)cc1
 : -3%	-8%	-4%	9%	-9.8%	.	24%	3%
Cc1nn(C)c(C)c1NC(=O)c1ccnn1C
 : 2%	-1%	2%	-1%	2.9%	-6%	-4%	-1%
Cc1ccccc1Nc1c(-c2ccccc2)nc2cccc(C)n12
 : .	-14%&-14%[46.1 µM]	-2%	.	-2.2%	0%	-13%[46.1 µM]	.
Cc1ccc(-c2nc3ccccc3[nH]2)cc1NC(=O)COc1cccc(C)c1C
 : .	?	?	.	-1.9%	-5%	-7%[46.1 µM]	.
COc1ccc(C)cc1NC(=O)C1CCN(C(=O)c2ccc(C(C)(C)C)cc2)CC1
 : 0%	?	.	7%	.	18%	3%[46.1 µM]	1%
CCn1cc(CN2CCC(n3nccc3NC(=O)c3cccc(F)c3)CC2)cn1
 : ?	-3%	.	2%	.	-9%	?	-10%
COc1ccccc1NC(=O)c1ccc(-c2ccccc2F)o1
 : -3%	-1%	0%	-33%	-4.7%	0%	1%	-2%
CCCc1nnc(NC(=O)CCC(=O)N2CCN(S(=O)(=O)c3ccc(F)cc3)CC2)s1
 : 0%	.	.	-7%	.	-1%	.	5%
CCOc1ccc(S(=O)(=O)N2CCN(C(=O)c3ccncc3)CC2)cc1
 : 1%	9%[46.1 µM]	.	6%	.	-21%	-2%[46.1 µM]	6%
CCOc1ccc(NC(=O)NCc2ccc3c(c2)CCN3C(C)=O)cc1
 : .	.	26%	.	-0.2%	-23%	0%[46.1 µM]	.
Nn1c(SCC(=O)Nc2ccc(S(=O)(=O)N3CCCC3)cc2)nnc1C(F)(F)F
 : 3%	-7%	4%	-6%	3.1%	14%	0%	8%
Cc1ccc2nc(Nc3ccccc3)c(C=O)c(=O)n2c1
 : -1%	6%	.	-8%	.	16%	10%	11%
c1ccc(-n2cnc3ccccc32)nc1
 : -8%	-9%	.	-4%	.	9%	14%	4%
CC(/C=C/c1ccc(C)o1)=C\C(=O)O
 : -8%	1%	-5%	3%	-11%	-19%	.	-19%
COc1ccc(CNC(=O)COC(=O)c2n[nH]c3ccccc23)cc1OC
 : 24%	?	7%	2%	0.7%	11µM*	?	-12%
Cc1nn(CC(=O)N/N=C/c2cccs2)c(C)c1[N+](=O)[O-]
 : 0%	21%	.	5%	.	-14%	6%	4%
Cc1ccc(C(=O)OCC(=O)Nc2ccccc2)cc1NC(=O)c1ccco1
 : -3%	1%	2%	2%	0.5%	23%	6%	8%
NC(=O)C1CCN(S(=O)(=O)c2cc3c(cc2Cl)NC(=O)CO3)CC1
 : .	.	-4%	.	0.3%	5%	0%[46.1 µM]	.
CCc1ccc(-c2cc3c(=O)n(CC(=O)NCCCN4CCN(CC)CC4)nc(C)n3n2)cc1
 : 7%	.	.	5%	.	11%	.	-1%
Cc1ccc(NC(=O)CN2CCN(C3CCCCC3)C(=O)C2=O)cc1C
 : .	.	-7%	.	0.7%	-11%	23%[46.1 µM]	.
CCN(CC)C(=O)c1[nH]cnc1C(=O)N[C@@H](C)C(=O)OCc1ccccc1
 : -1%	.	.	0%	.	-4%	.	-5%
CCc1nnc(NS(=O)(=O)c2ccc(NS(=O)(=O)c3ccc(NC(C)=O)cc3)cc2)s1
 : 13%	.	-4%	11%	4.8%	.	.	.
COc1ccc(NC(=O)CN2C(=O)COc3ccc(S(=O)(=O)N4CCCCCC4)cc32)cc1
 : 3%	.	2%	12%	-1.4%	5%&-1%	-19%[46.1 µM]	8%
CC(C)c1nn2c(=O)cc(COC(=O)c3cccc(NC(=O)CCc4ccccc4)c3)nc2s1
 : .	.	?	.	-2.1%	36%[activator]	20%[46.1 µM]	.
Cc1cccc(NC(=O)C(=O)c2cc(C)n(-c3ccccc3)c2C)c1C
 : .	-25%[46.1 µM]	-3%	.	-2.9%	-17%	?	.

From PubChem BioAssay
